# Screening results (PubChem)
# Beta cell apopt – beta cell apoptosis inhibition. INS-1E cytokine-induced death, ATP luminescence, 48 h; percent of positive-control rescue, neutral wells zero. protection from apoptosis, % (no concentration beside the values). 300,000 tested, 0.8% active. AID 435005;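 active = all replicates at 75% or more, or half of them and the mean; inconclusive = half reach 75% but not the mean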;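 also: 0% = cytokine-treated negative control wells and 100% = positive control rescue; higher means more ATP so stronger rescue from cytokine killing; wells of about 40 µL received 100 nL stock; the first replicate is given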
# Vif A3G – inhibitors of Vif binding to APOBEC3G peptide, primary screen, biochemical, TR-FRET, GST-Vif 1-94, biotin-A3G peptide, dose response retest (AID 1117319) | TR-FRET GST-Vif / biotin-A3G peptide binding; higher % means a stronger effect; test concentration not given here; strong numbers were not always called active | inhibition, %; hits with a dose series show IC50 in µM | 260,000 tested, 0.57% active;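 active = above the screen mean plus three standard deviations and confirmed in dose response; inconclusive = results disagree or hit not tested in dose response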;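 also: Vif residues 1-94 fused to GST binding biotinylated APOBEC3G peptide 110-148; 0% = full assay without inhibitor and 100% = GST in place of GST-Vif; retest series ran down from 100 µM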
# Bfl-1 A1 inh – inhibitors of the anti-apoptotic protein A1, read as caspase activation; MEF A1-2A-BIM cells, Caspase-Glo 3/7 luminescence, 3 h; percent of clofoctol response, vehicle zero; caspase activation, % (no concentration beside the values); 330,000 tested, 0.066% active; AID 2462;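 active = over half of replicate activation scores above 10%, or exactly half above 10 with the replicate mean above 10; inconclusive = replicate mean below 10 yet half the replicates above 10; inactive = over half of replicates below 10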;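 also: wells of about 30 µL received 50 nL stock; many hits fall short of the cut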
# Calb FLC – C. albicans growth modulation with fluconazole | C. albicans CaCi-2 (fluconazole-resistant clinical isolate) + fluconazole, Alamar Blue growth, 48 h | growth inhibition, % (test concentration not listed) | 300,000 tested, 0.57% active | AID 1979;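 active = most replicates above 75%; inconclusive = exactly half above 75%; inactive = most below 75%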;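 also: all wells also contain fluconazole at 8 µg/ml as a sub-toxic cotreatment; 0% = median of DMSO wells and 100% = median of geldanamycin control wells; wells of about 8 µL received 7.5 nL stock; the first replicate is given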
# RanGTP-Impb inh – inhibitors of RanGTP-importin-beta interaction, primary screen, biochemical, FRET, CFP-Ran, YFP-importin-beta, homogeneous; cell-free CFP-Ran/YFP-importin-beta FRET ratio; inhibition, % (no concentration beside the values); 300,000 tested, 1.1% active;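 active = most replicates above 15%; inconclusive = exactly half above 15%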;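 also: 0% = DMSO wells and 100% = Ran loaded with GDP instead of GTP; wells of about 40 µL received 100 nL stock; the first replicate is given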
# Ecoli rRNA inh – selective bacterial rRNA inhibition in E. coli; E. coli WT GFP vs humanized-ribosome RFP mutants, fluorescence, 24 h; stronger effect = lower value; DMSO median 0, no signal -100; GFP signal change (wild-type ribosome), % (no concentration beside the values); 350,000 tested, 1.6% active;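 active = significant combined selectivity score with lowered wild-type GFP, culture density cut under 30%, mutant RFP and density less affected; inactive = any of these conditions unmet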; also: one replicate is shown; some compounds called inactive have numbers as strong as hits
# AF4-AF9 inh – MLL-AF4/AF9 protein interaction inhibition. P42568. inhibition, % at 10 µM. AlphaScreen, biotin-AF4 peptide binding to FLAG-AF9. 350,000 tested, 0.47% active. AID 651704;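 active = every replicate reaching a set inhibition limit, whatever the replicate mean, cut at about 25% in these data; inconclusive = mean inhibition reaches that limit but some replicates miss it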;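 also: 0% = plate neutral control median and 100% = total signal loss; the record names both 10 and 1 µM as test concentration; the first replicate is given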
# Target sequence (P42568 whole entry, looked up): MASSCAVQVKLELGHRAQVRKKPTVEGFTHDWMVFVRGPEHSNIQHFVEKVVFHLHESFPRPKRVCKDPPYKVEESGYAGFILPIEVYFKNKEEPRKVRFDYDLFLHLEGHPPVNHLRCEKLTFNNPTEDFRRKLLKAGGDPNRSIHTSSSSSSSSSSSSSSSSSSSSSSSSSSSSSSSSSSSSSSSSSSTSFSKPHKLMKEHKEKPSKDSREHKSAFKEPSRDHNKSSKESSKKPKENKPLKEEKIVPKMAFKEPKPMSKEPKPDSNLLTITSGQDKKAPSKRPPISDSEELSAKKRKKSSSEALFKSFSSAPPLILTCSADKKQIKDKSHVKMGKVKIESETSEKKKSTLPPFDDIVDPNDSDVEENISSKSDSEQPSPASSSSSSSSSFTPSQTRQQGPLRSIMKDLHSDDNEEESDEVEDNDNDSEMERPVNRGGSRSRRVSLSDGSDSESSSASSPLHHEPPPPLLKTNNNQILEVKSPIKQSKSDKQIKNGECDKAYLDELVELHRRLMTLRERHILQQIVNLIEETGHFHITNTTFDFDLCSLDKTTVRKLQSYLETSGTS
# T cruzi repl – blocks replication of Trypanosoma cruzi | T. cruzi beta-gal in NIH3T3, luminescence, 90 h | 300,000 tested, 1.4% active | inhibition, % (concentration not given with the values) | AID 1885;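 active = mean inhibition across valid replicates above about 55%, limit read from the data; inconclusive = mean below that limit but half or more replicates reach it; inactive = mean below it, under half of replicates reach it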;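 also: signal also drops with host cell toxicity which is not excluded here; 0% = plate median of DMSO wells and 100% = zero luminescence signal; higher percent means less beta-gal luminescence so fewer parasites; stock transfer was 50 nL into about 50 µL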
# Ecoli rRNA inh OD600 – also measured in Ecoli rRNA inh; calls as there; OD600 change, %; measured here: OD600 growth;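 optical density of the mix in the first replicate; 0 = DMSO median and -100 = no signal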
# Ecoli rRNA inh RFP – second read-out of Ecoli rRNA inh, no call of its own (marks repeat the call); RFP signal change, %; measured here: RFP humanized mutant strains;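 first replicate; 0 = DMSO median and -100 = no signal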
# Starred values were filed as active, the others as inactive; u = inconclusive; x = no result given; & = joins results of further samples. Not all compounds are listed, so the mix of outcomes need not match the whole.
smiles	RanGTP-Impb inh	Bfl-1 A1 inh	Beta cell apopt	Ecoli rRNA inh RFP	Ecoli rRNA inh	Vif A3G	Ecoli rRNA inh OD600	Calb FLC	AF4-AF9 inh	T cruzi repl
COc1ccc(C(CC(=O)N2CCCC(C)C2)c2c(OC)cc(OC)c3ccc(=O)oc23)cc1 (stereo unspecified)	0.2	0.1	10	x	x	-5%	x	30	x	7
Cn1c(SCc2cccnc2)nc2c(c1=O)SCC2	-0.7	-0.1	-8	1.8	3	x	4	5	-2.3	-3
COC(=O)c1ccc(CN2CCCC(C(=O)c3cc(F)ccc3OC)C2)cc1 (stereo unspecified)	-1.6	0.2	x	-1.0	-12	x	-9	2	0.4	0
CCN(Cc1ccccc1)C(=O)CS(=O)(=O)c1ccccc1	2.3	-0.7	-6	-0.3	6	-2%	5	5	-2.1	0
CC(=O)N1CCN(c2ccccc2NC(=O)c2ccc3ccccc3c2)CC1	4.0	0.3	3	-1.2	-22	x	-23	3	1.0	16
NS(=O)(=O)c1ccc(NC(=O)CCCCC(=O)Nc2ccc(S(N)(=O)=O)cc2)cc1	3.6	0.8	-4	1.5	0	-2%	13	0	-20	-9
CC(Nc1ccccc1)C(=O)Nc1ccc(F)cc1 (stereo unspecified)	-0.9	1.0	-4	x	x	-2%	x	-20	x	-20
CC(=C/C(=O)O)/C=C/c1ccco1	-1.7	0.0	1	1.5	10	25%	17	-1	1.6	-6
COc1ccccc1NC(=O)c1ccccc1C(=O)O	-1.0	-0.4	4	-1.1	10	5%	9	24	0.7	12
CS(=O)(=O)N(CC(=O)NCCSCc1ccccc1)c1ccccc1Br	3.8	1.0	1	1.3	-16	x	-19	-30	2.2	-13
COc1ccc(CN(C)C(=O)c2oc3ccccc3c2CSC)cc1F	0.5	0.0	1	0.8	1	-1%	-17	1	-0.4	-1
O=C(c1ccc(F)cc1)C1CCN(Cc2cn[nH]c2-c2ccccc2)CC1	5.4	1.5	-9	0.5	14	17%	-4	-7	0.0	5
O=C(CCC(=O)c1ccc(Cl)s1)Nc1ncccc1O	x	-0.7	0	4.2	-1	19%	-4	x	2.4	x
O=C(O)CCC(=O)NNC(=O)CCC(=O)NCc1ccccc1	3.6	0.1	2	x	x	69%	x	7	x	-10
COC(=O)c1ccccc1NC(=O)Cn1c(SC)c(F)cnc1=O	-0.8	-1.6	-5	x	x	-1%	x	-22	x	2
Cc1ccc(-n2c(=O)c3sccc3n(CC(=O)NCC3CCCO3)c2=O)cc1F (stereo unspecified)	0.5	-0.6	3	-2.3	2	x	9	-10	-9.1	-5
Cc1c(Br)cc(C(=O)OC2CCN(C)CC2)c(C)c1C	4.5	-0.7	-4	x	x	17%	x	-7	x	51
COC(=O)CN1C(=O)C(O)(CC(=O)c2cccc(Br)c2)c2ccccc21 (stereo unspecified)	-1.5	0.1	-12	3.2	8	19%	9	-14	0.1	-8
O=C(COc1ccccc1)OCc1csc(Nc2ccccc2)n1	-0.1	-0.8	-8	1.0	4	-3%	1	u	-3.4	-20
O=C(COC(=O)c1cnc(Cl)c(Cl)c1)NC1CC1	x	1.1	-5	-1.3	11	3%	9	x	-5.9	x

# (continued)
smiles	RanGTP-Impb inh	Bfl-1 A1 inh	Beta cell apopt	Ecoli rRNA inh RFP	Ecoli rRNA inh	Vif A3G	Ecoli rRNA inh OD600	Calb FLC	AF4-AF9 inh	T cruzi repl
C[C@H]1CN([C@@H](C)CO)C(=O)Cc2cc(NC(=O)CCC(F)(F)F)ccc2O[C@H]1CN(C)Cc1ccc(-c2ccccc2)cc1	x	0.0	14	-0.1&22	-2&12	x	-11&-6	x	4.2	x
CC(OC(=O)Cn1nnc2ccccc21)C(=O)NC1CCCC1 (stereo unspecified)	3.3	-0.1	0	-1.0	5	x	5	-6	-1.2	-7
CN(C)Cc1nc2ccccc2c(=O)n1CC#N	4.1	-0.4	-1	-8.8	18	-3%	21	-17	-1.3	13
Cc1ccc(C(=O)NCCCNC(=O)c2ccco2)cc1C	0.6	0.0	x	3.3	-3	x	-11	3	-3.2	16
CCN1C(=O)CC(N2CCN(c3ccc(C(=O)c4ccccc4)cc3)CC2)C1=O (stereo unspecified)	3.1	-0.1	1	x	x	3%	x	20	x	3
O=C(CSc1nc(O)cc(=O)n1-c1ccc(Cl)c(Cl)c1)Nc1ccc(Cl)cc1Cl	-0.3	0.3	x	-0.5	-1	x	-5	-4	-1.5	0
Cc1cc([N+](=O)[O-])nn1Cn1nc([N+](=O)[O-])cc1C	8.1	-1.5	1	-8.6	8	-9%	3	1	-1.0	7
CCc1c(C(=O)NCCc2ccc(OC)c(OC)c2)[nH]c(C)c1C(C)=O	1.9	1.8	6	x	x	-3%	x	-3	x	-9
CC(C)Cc1nnc(NC(=O)c2ccc3c(=O)n4c(nc3c2)CCC4)s1	0.2	0.2	1	-0.9*	-21*	0%	-8.7*	-5	-0.7	6
CCCN(CCC)C(=O)CP(=O)(c1ccccc1)c1ccccc1	4.4	0.5	0	x	x	5%	x	-3	x	1
CCOc1ccc(CN(C(=O)c2cc3ccccc3oc2=O)C2CCS(=O)(=O)C2)cc1 (stereo unspecified)	3.4	0.3	2	0.8	7	4%	10	6	-0.8	-2
Cc1cc(C(=O)OCC(=O)NC2CCCC(C)C2C)c(C)o1 (stereo unspecified)	x	1.6	0	2.5	15	x	12	x	-0.9	x
COC(=O)c1ccc(NC(=O)c2ccccc2-c2ccccc2C(=O)O)cc1	-1.4	-0.1	-6	0.1	-7	4%	-4	16	-0.8	5
Cc1onc(-c2ccccc2Cl)c1C(=O)OCC(=O)Nc1cccc(S(=O)(=O)N(C)C)c1	3.0	0.9	-3	2.2	-9	0%	-13	15	-6.9	-3
CCC(C)/C(C)=N/NC(=O)CSc1nc2ccccc2[nH]1 (stereo unspecified)	-0.6	0.3	-3	1.8	1	18%	1	-5	-1.9	-8
CCOC(=O)C(Sc1ncn[nH]1)c1ccccc1 (stereo unspecified)	u	0.6	-11	x	x	22%	x	2	x	-20
CC(C)(C)c1cc(NC(=O)c2ccc(OC3CCCC3)cc2)no1	2.7	0.1	34	-1.3	-9	-4%	-15	0	-12	34
O=C(NC(=S)Nc1cccc2ncccc12)c1cccs1	5.3	0.5	13	6.5	4	1%	13	34	-1.4	-10
Cc1cccc(N2CCN(C(=O)C3CCC(CNS(=O)(=O)c4cccs4)CC3)CC2)c1C (stereo unspecified)	-2.3	-0.8	30	7.0	-5	x	-10	14	-6.5	45
CNC(=S)N/N=C/c1ccc(C(C)C)cc1	-1.5	-1.6	-3	x	x	3%	x	-3	x	-20

# Remaining list, next part.
smiles	RanGTP-Impb inh	Bfl-1 A1 inh	Beta cell apopt	Ecoli rRNA inh RFP	Ecoli rRNA inh	Vif A3G	Ecoli rRNA inh OD600	Calb FLC	AF4-AF9 inh	T cruzi repl
CC1(C)Oc2ccccc2OC1(O)c1ccc2ccccc2n1 (stereo unspecified)	0.6	0.3	1	x	x	10%	x	-1	x	2
CCn1cc(/C=C/C(=O)NCc2c(C)nn(C)c2C)cn1	-2.2	0.5	-3	x	x	0%	x	6	x	-18
CC12CN3CC(C)(CN(C1)C3c1ccccc1Cl)C2O (stereo unspecified)	-1.2	0.7	1	x	x	u	x	-21	x	1
O=C(NCc1ccccc1CN1CCCC1)c1cccc(S(=O)(=O)N2CCCC2)c1	x	0.0	-5	0.5	11	-5%	6	x	-0.2	x
COc1ccc(-c2cn3cccnc3n2)cc1NC(=O)c1cccs1	-3.1	0.5	x	x	x	x	x	29	x	-3
Cc1onc(-c2ccccc2Cl)c1C(=O)N/N=C(\N)COc1ccc(Cl)cc1	-1.2	1.5	25	x	x	4%	x	-18	x	12
CCc1ccc2oc(C(=O)NCc3ccncc3)c(C)c2c1	-5.0	-0.1	34	x	x	-2%	x	14	x	18
Cc1ccnc(Nc2nc3ccccc3s2)n1	u	0.4	10	2.6	13	-6%	13	4	0.2	12
O=C(Cc1cccs1)Nc1nnc(C2CC2)s1	-2.5	-0.1	-4	-0.1	5	6%	8	23	1.3	4
Cc1ccc(-n2cc(-c3ccccc3)[nH]c2=O)cc1F	-0.2	-2.3	1	x	x	10%	x	0	x	x
COc1ccc(-c2cc(C(=O)Nc3cc(C)on3)no2)cc1	-4.8	-0.7	-1	-2.0	-3	-6%	9	1	-2.8	-4
CC1CCCN(C(=O)c2ccc(NS(=O)(=O)c3ccc4[nH]c(=O)[nH]c4c3)cc2)C1 (stereo unspecified)	2.9	0.8	-9	-1.6	7	-2%	2	3	0.6	-7

# Five compounds out of the list above, arranged by the number in Vif A3G, descending.
smiles	RanGTP-Impb inh	Ecoli rRNA inh RFP	Ecoli rRNA inh	Vif A3G	Ecoli rRNA inh OD600	AF4-AF9 inh
O=C(Cc1cccs1)Nc1nnc(C2CC2)s1	-2.5	-0.1	5	6%	8	1.3
Cc1onc(-c2ccccc2Cl)c1C(=O)N/N=C(\N)COc1ccc(Cl)cc1	-1.2	x	x	4%	x	x
CCn1cc(/C=C/C(=O)NCc2c(C)nn(C)c2C)cn1	-2.2	x	x	0%	x	x
CCc1ccc2oc(C(=O)NCc3ccncc3)c(C)c2c1	-5.0	x	x	-2%	x	x
COc1ccc(-c2cc(C(=O)Nc3cc(C)on3)no2)cc1	-4.8	-2.0	-3	-6%	9	-2.8

# One compound at a time, from the list above.
# Results for CC1(C)Oc2ccccc2OC1(O)c1ccc2ccccc2n1 (stereo unspecified) : RanGTP-Impb inh = 0.6; Bfl-1 A1 inh = 0.3; Beta cell apopt = 1; Ecoli rRNA inh RFP = x; Ecoli rRNA inh = x; Vif A3G = 10%; Ecoli rRNA inh OD600 = x; Calb FLC = -1; AF4-AF9 inh = x; T cruzi repl = 2
# Results for COc1ccc(-c2cc(C(=O)Nc3cc(C)on3)no2)cc1 : RanGTP-Impb inh = -4.8; Bfl-1 A1 inh = -0.7; Beta cell apopt = -1; Ecoli rRNA inh RFP = -2.0; Ecoli rRNA inh = -3; Vif A3G = -6%; Ecoli rRNA inh OD600 = 9; Calb FLC = 1; AF4-AF9 inh = -2.8; T cruzi repl = -4
# Results for Cc1onc(-c2ccccc2Cl)c1C(=O)N/N=C(\N)COc1ccc(Cl)cc1 : RanGTP-Impb inh = -1.2; Bfl-1 A1 inh = 1.5; Beta cell apopt = 25; Ecoli rRNA inh RFP = x; Ecoli rRNA inh = x; Vif A3G = 4%; Ecoli rRNA inh OD600 = x; Calb FLC = -18; AF4-AF9 inh = x; T cruzi repl = 12
